nsP2pro inh: CHIKV nsP2 protease inhibition, primary qHTS. Q8JUX6. FRET peptide cleavage, nsP2pro, fluorescence 1 h. Potency, µM (titrated, usually from 24.9 µM), for inactives: at the highest dose activity change, negative = inhibition, most hits filed as inhibitors. hit rate 1.1% among 31,000. AID 1964107; active means well fitted inhibition curve with a large enough effect; inconclusive means small, poorly fitted or top-dose-only effect; inactive means no such curve, though single readings can be large or run the other way; note: nearly all actives have a fitted effect of over 60% in size; a reference inhibitor and vehicle were the controls
Target sequence (Q8JUX6 whole entry, looked up): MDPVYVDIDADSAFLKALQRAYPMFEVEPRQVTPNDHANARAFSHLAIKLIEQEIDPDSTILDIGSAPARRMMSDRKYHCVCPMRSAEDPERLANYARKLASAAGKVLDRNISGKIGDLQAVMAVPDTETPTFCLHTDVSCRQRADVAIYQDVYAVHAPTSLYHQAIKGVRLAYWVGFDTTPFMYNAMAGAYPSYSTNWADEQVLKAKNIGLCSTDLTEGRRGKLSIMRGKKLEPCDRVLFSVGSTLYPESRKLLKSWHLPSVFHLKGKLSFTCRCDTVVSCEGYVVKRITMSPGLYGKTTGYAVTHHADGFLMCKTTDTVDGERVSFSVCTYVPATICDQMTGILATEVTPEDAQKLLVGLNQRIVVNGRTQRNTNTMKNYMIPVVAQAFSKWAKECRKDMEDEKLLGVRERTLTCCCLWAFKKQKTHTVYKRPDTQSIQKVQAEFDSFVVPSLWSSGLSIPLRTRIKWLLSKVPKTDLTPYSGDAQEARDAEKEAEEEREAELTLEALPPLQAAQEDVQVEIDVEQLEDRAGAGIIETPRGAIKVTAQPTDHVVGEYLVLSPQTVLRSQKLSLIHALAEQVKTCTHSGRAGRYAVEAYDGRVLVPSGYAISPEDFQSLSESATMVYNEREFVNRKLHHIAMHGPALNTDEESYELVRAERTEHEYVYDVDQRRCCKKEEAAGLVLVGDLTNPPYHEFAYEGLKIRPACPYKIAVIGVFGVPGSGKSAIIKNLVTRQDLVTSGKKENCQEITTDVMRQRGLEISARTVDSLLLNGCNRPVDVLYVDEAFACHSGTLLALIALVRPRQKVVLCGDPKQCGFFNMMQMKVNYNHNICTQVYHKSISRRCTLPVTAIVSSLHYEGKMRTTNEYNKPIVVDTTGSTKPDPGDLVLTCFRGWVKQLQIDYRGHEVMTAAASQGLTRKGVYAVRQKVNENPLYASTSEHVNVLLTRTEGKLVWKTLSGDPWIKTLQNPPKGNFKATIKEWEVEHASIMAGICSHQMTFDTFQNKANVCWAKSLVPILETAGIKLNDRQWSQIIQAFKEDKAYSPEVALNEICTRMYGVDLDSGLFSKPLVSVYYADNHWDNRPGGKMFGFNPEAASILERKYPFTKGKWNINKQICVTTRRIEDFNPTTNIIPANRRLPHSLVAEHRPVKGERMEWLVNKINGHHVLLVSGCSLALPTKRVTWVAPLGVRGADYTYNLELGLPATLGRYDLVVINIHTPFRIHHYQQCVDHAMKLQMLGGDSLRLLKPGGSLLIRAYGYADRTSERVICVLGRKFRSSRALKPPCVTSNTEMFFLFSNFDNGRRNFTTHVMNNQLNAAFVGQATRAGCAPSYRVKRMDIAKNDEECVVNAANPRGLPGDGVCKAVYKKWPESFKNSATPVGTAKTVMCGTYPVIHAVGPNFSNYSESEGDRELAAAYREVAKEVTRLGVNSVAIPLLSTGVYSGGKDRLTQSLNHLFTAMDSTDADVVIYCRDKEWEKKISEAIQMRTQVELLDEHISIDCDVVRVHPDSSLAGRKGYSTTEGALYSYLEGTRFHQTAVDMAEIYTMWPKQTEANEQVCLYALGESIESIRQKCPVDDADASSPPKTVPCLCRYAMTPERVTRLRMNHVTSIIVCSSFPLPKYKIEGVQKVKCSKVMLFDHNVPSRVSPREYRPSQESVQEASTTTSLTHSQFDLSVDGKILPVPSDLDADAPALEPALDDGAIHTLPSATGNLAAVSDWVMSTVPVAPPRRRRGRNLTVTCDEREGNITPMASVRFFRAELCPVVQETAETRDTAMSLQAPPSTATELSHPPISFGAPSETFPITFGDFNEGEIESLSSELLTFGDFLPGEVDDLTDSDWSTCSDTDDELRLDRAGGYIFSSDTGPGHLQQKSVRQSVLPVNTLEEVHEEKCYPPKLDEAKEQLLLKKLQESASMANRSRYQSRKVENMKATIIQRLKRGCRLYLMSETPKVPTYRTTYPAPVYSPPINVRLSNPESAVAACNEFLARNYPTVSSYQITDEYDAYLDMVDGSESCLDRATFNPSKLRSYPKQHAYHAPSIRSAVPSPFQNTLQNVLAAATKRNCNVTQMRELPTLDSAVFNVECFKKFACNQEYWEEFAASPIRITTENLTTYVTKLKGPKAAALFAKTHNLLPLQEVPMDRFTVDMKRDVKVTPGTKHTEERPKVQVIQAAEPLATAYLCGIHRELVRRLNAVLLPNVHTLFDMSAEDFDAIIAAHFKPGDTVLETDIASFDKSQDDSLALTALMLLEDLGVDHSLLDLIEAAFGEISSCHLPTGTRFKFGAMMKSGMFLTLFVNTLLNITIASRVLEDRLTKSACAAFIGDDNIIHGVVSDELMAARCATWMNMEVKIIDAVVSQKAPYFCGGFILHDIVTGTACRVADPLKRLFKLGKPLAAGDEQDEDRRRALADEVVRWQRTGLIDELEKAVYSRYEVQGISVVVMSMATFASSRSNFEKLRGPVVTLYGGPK
* = called active by the depositor; i = inactive; ? = inconclusive; [ ] = another dose, or the depositor's remark. % is set by controls: 0 for no effect and ±100 for the full control effect; potency is the fitted concentration of half-maximal effect. Some of the compounds tested (hit frequency here may not be typical).

SMILES	nsP2pro inh
CCOC(=O)C[C@@H]1C[C@@H](C(C)C)[C@H](CNS(=O)(=O)c2ccccc2)C=C1C	i
O=C(Nc1ccc(F)c(C(F)(F)F)c1)Nc1cccc(-c2ccncc2)n1	4%
CNCC[C@H](Oc1cccc2ccccc12)c1cccs1	28%
O=S(=O)(Nc1nccs1)c1ccc(NCc2ccccc2)cc1	3%
COc1ccccc1CNc1nc(-c2ccco2)nn1S(=O)(=O)c1ccc(Cl)cc1	8.9µM*
Cc1ccc(/C=C/c2onc(C)c2S(=O)(=O)N2CCC(C(=O)NCc3ccco3)CC2)cc1	-14%
COc1ccccc1CNC(=O)Cn1c(=O)ccc2cc(S(=O)(=O)N3CCC(C)CC3)ccc21	-12%
C[C@H](c1ccccc1)N1C(=O)[C@@H]2CN(C(=O)CC(C)(C)C)CCN2C1=O	-11%[39.2 µM]
CC(=O)c1ccc(N2CCN(C(=O)c3ccc4c(c3)CC(=O)N4)CC2)cc1	i
O=C(COc1ccc(F)cc1)N1CCCN(c2cc(-c3ccc(Br)cc3)[nH]n2)CC1	-4%
N#Cc1ccccc1Nc1ncc(-c2cccc3ccccc23)o1	-61%
CCC(=O)N1CCC(OC2CCN(C(=O)CC3CCCCC3)CC2)CC1	4%
Cc1oc(=O)oc1COC(=O)N1CC[C@@H](N2CC/C(=C\C3=C(C(=O)O)N4C(=O)[C@@H](NC(=O)/C(=N/O)c5nsc(N)n5)[C@H]4SC3)C2=O)C1	-3%
CCOC(=O)c1ccc(NC(=O)c2cccc3c(=O)c4c([nH]c23)CCCC4)cc1	5%
Cn1cnc(S(=O)(=O)N2CCCC(C(=O)NCc3ccc(Cl)cc3)C2)c1 (stereo not drawn)	-23%
COc1ccc(N2CCN(C(=O)c3cc4c(s3)CN(C3CCCC3)C4)CC2)cc1	-10%
Cn1cc(C(=O)NCCc2ccccc2)c(=O)c2cc(S(=O)(=O)N3CCCCCC3)ccc21	-6%
O=C1CO[C@H]2CCN(Cc3ccc4c(c3)CCO4)CC[C@@H]2N1Cc1ccccc1	i
Cc1noc(-c2cccn3c(CNC(=O)c4ccccc4C)nnc23)n1	4%
CC(C)CC(=O)N1CC(=O)Nc2ccc(F)cc2C1c1ccccc1 (stereo not drawn)	-28%
COc1cccc(-c2cc(NCc3ccc4c(c3)OCO4)nc(N)n2)c1	7%
COc1ccc(NC(=O)c2[nH]c(C)c(C(C)=O)c2C)cc1[S+](=O)([O-])Nc1ccccc1C#N	1%
CC(CNC(=O)c1ccc(CSc2nc3ccncc3n2Cc2ccc(F)cc2)cc1)c1ccccc1 (stereo not drawn)	27%
Cc1ccc(Cn2c(C(=O)O)c(CNC3CCCC3)c3ccc(C)cc32)cc1	-19%
CC(C)CC1NC(=O)C2CC3(O)c4ccccc4NC3N2C1=O (stereo not drawn)	?
CC/C=C\CC1C(CC(=O)O)CCC1OC1OC(CO)C(O)C(O)C1O (stereo not drawn)	-5%
COCC1CCN(CC2(O)CCCN(Cc3cccc(F)c3F)C2=O)CC1 (stereo not drawn)	3%
O=c1ccn([C@@H]2O[C@H](CO)[C@@H](O)[C@H]2O)c(=O)[nH]1	10%
CC1=C(C(=O)O)/C(=C\CO[C@@H]2O[C@H](CO)[C@@H](O)[C@H](O)[C@H]2O)C(OC(=O)/C=C/c2ccc(O)cc2)C1 (stereo partly drawn)	14%[10 µM]
O=C(O)CCc1cc(F)c(S(=O)(=O)N2CCN(S(=O)(=O)c3ccc4c(c3)OCCO4)CC2)cc1F	0%
CC1=C(C(=O)O)N2C(=O)[C@@H](NC(=O)[C@H](N)c3ccccc3)[C@H]2SC1	0.31µM*
CC(C)CN1CCc2nc(N3CCN(C)CC3)ncc2C1	19%
COc1cccc(CN2CCOC[C@H](O)C2)c1	-15%[39.2 µM]
CCN1CCC(N2CC[C@H](CO)[C@H](N(C)C)C2)CC1	3%
CC(C)C[C@H](N)c1nnc(SCc2ccc(Cl)cc2Cl)o1	?
O=C(Nc1ccn[nH]1)c1c(F)cccc1F	17%
CC(=O)N[C@H](C(=O)N[C@@H](C)C(=O)N[C@H](C#N)CC(=O)O)C(C)C	i
CCOC(=O)c1cc(-c2ccc(OC)c(S(=O)(=O)NC3CCCCC3)c2)on1	-1%
CC(C)(O)C1CCC2(C)CCCC(C)(O)C2C1 (stereo not drawn)	?
CN(Cc1ccc(F)cc1)S(=O)(=O)c1cccs1	2%[39.2 µM]
Clc1cccc(COc2cncc(N3CCNCC3)n2)c1	12%
COP(=O)(OC)OC=C(Cl)Cl	-7%
Cc1ccc(N[S+](=O)([O-])c2cc3c(cc2Cl)NC(=O)CO3)cc1Br	3%
CCCN1CCC=C(c2cc(-c3ccc(C)cc3)no2)C1	?
NC(=O)C1CCN(c2nc(-c3cccc(Br)c3)cs2)CC1	i
Cc1ccccc1S(=O)(=O)Cc1ccc(C(=O)NC2CCCCC2)o1	-10%
Cn1c(=O)n(C)c2cc(CNc3ccc(N4CCOCC4)c(C(=O)O)c3)ccc21	13%
O=C(Nc1ccc(S(=O)(=O)Nc2nccs2)cc1)C(c1ccccc1)c1ccccc1	42%[activator]
COc1ccc(C2=Nn3c(nnc3-c3cc(OC)ccc3OC)SC2)c(OC)c1	3%
CCn1cc(CN(C)C(=O)CN2C(=O)C(Oc3ccc(F)cc3)C23CCCCC3)c(C)n1 (stereo not drawn)	-22%

By substructure: the compounds so far with a cyano group (3)
SMILES	nsP2pro inh
N#Cc1ccccc1Nc1ncc(-c2cccc3ccccc23)o1	-61%
COc1ccc(NC(=O)c2[nH]c(C)c(C(C)=O)c2C)cc1[S+](=O)([O-])Nc1ccccc1C#N	1%
CC(=O)N[C@H](C(=O)N[C@@H](C)C(=O)N[C@H](C#N)CC(=O)O)C(C)C	i

New compounds follow
SMILES	nsP2pro inh
COc1ccc(O[C@H]2COCCN(C(=O)C3CCCC3)C2)cc1	4%[39.2 µM]
Cc1cc(C)c2c(n1)SCC(=O)N2CC(=O)Nc1c(C)cccc1C	-10%
CCOC(=O)c1cc(-c2ccccc2)n(CCC(=O)Nc2nc3c(C)cccc3s2)c1C	-6%
O=C(O)COc1ccccc1	16%
O=C1CN(C(=O)c2ccc(S(=O)(=O)N3CCCC3)cc2)C(c2ccc(F)cc2)c2cc(Br)ccc2N1 (stereo not drawn)	0%
Cc1[nH]c2ccccc2c1C1=C(NCCc2ccc(F)cc2)C(=O)N(C)C1=O	-29%
Cc1ccc(-c2ccc(=O)n(CC(=O)N(C)C3CCCCCC3)n2)cc1	-2%
CC(C)Cc1cc(CN2CCC(CO)(CN3CCCC3)CC2)[nH]n1	1%
Cc1ccc(NC(=O)CSc2nc3ccccc3c3nc(CCn4cncc4C)nn23)cc1F	107%[activator]
N#Cc1ccccc1CN1CCNc2nc(CNCc3ccccc3)n(Cc3ccccc3)c2C1=O	i
Cn1cc2ccc(-c3ccc4ncnc(NCc5cccs5)c4c3)cc2n1	i
CCOc1ccc(NC(=O)c2cc3c(C)nn(-c4ccccc4)c3s2)cc1	-22%
Cc1ccc(OCCn2c(CCNC(=O)c3ccsc3)nc3ccccc32)cc1	3%
O=P(O)(O)C(Sc1ccc(Cl)cc1)P(=O)(O)O	-3%[0.199 µM]
COCc1cc(C)nc2c1C(=O)NC(c1ccc(Br)cc1)N2Cc1ccccc1 (stereo not drawn)	-22%
COc1ccccc1NC(=O)Cn1c(=O)oc2cc(S(=O)(=O)NCc3ccccc3)ccc21	-12%
CCCCNC(=O)c1cc(-c2ccc(OC)cc2)nc2n[nH]c(-c3cccc([N+](=O)[O-])c3)c12	-24%
Cc1nnc2ccc(NC3CCCC3)nn12	2%
CCNC(=O)N[C@@H]1C=C[C@@H](c2c(C)nn(-c3ccccc3[N+](=O)[O-])c2C)C1	?
O=C(CC1CCCC1)N1CC2CC(C1)[C@H]1CCCC(=O)N1C2 (stereo partly drawn)	i
COCCCNC(=O)c1ccc(Cn2c(=O)c3ccccc3n(Cc3ccc(C(C)C)cc3)c2=O)cc1	15%
CC12CCC3c4ccc(OC5OC(C(=O)O)C(O)C(O)C5O)cc4CCC3C1CCC2O (stereo not drawn)	20%
Cc1ccc(OCCn2c(CCNC(=O)NC3CCCCC3)nc3ccccc32)cc1	-16%
CC(C)c1ccccc1-c1ncc(N(C)C)c(NCc2ccc(-c3cccnc3)cc2)n1	0%
Nc1c(CC(=O)O)cccc1C(=O)c1ccc(Br)cc1	-7%
CCCS(=O)(=O)N1CCCC(c2[nH]ccc2C(N)=O)C1 (stereo not drawn)	-13%
Cc1cnc(CC2CCCN(Cc3ccc(F)cc3F)C2)n1Cc1ccccc1 (stereo not drawn)	i
Cc1ccc(C(=O)Nc2nnc(-c3ccco3)o2)cc1	-7%
CCCCCCCCCCCCCCCCCCCCCCO	-4%[0.199 µM]
O=S(=O)(Nc1nccs1)c1ccc(NCc2ccc(Br)cc2O)cc1	-16%
Fc1ccc(C(c2ccc(F)cc2)N2CCN(C/C=C/c3ccccc3)CC2)cc1	8%
CC(C)C(OC(=O)CNC(=O)c1ccccc1)C(=O)Nc1cc(C(F)(F)F)ccc1Cl (stereo not drawn)	-13%
COc1ccc(OC)c(CNC(=O)Nc2cn(CC(C)C)c(=O)c3ccccc23)c1	?
Fc1ccc(Nc2nc(-c3ccnc(C(F)(F)F)c3)nc3ccccc23)cc1F	0%
CCCCC(=O)N1c2ccccc2NC2=C(C(=O)CCC2)C1c1ccccc1Cl (stereo not drawn)	-6%
CC(=O)c1ccc(N2CCN(S(=O)(=O)c3ccc4c(c3)CC(=O)N4)CC2)cc1	-5%[39.2 µM]
CC1CCCN(CCCNC(=O)CN2C(=O)CSc3ccc(S(=O)(=O)N4CCOCC4)cc32)C1 (stereo not drawn)	-4%
O=S(=O)(c1cnc[nH]1)N1CCC(c2nc(CCOCC3CC3)no2)C1 (stereo not drawn)	-18%
CCC1CN(C(=O)N2CCC(C(=O)NCCCc3ccccc3)CC2)c2ccccc2O1 (stereo not drawn)	-14%
C[C@]12C=CC(=O)C=C1CC[C@@H]1[C@@H]2C(=O)C[C@@]2(C)[C@H]1CC[C@]2(O)C(=O)CO	-6%
CCCCCCCCCCCCCCCC(=O)N[C@H](CN1CCOCC1)[C@H](O)c1ccccc1	-16%
C=C1CCC2C(C)(C)CCC[C@]2(C)[C@H]1C/C=C(\CO)C(=O)C(=O)O (stereo partly drawn)	3%
Cc1ccc(-n2ncc(C(=O)NCc3ccccn3)c2C2CCN(C(=O)OC(C)(C)C)CC2)c(C)c1	-2%
Cc1cccc(C)c1OCCn1c(C2CC(=O)N(c3cccc(Cl)c3)C2)nc2ccccc21 (stereo not drawn)	-12%
CC(C)(C)c1cccc(NC(=O)Nc2nnc(-c3ccncc3)s2)c1	i
CCNC(=O)C1CCN(C(=O)C(C)(C)NC(=O)Nc2ccccc2Cl)CC1	-5%
O=C(Nc1ccccc1)OCc1c(-c2ccccc2)no[n+]1[O-]	-25%
COCc1nnc(C2CC3(CCN(C(=O)c4cccc(C)c4)CC3)CN2C)o1 (stereo not drawn)	3%
O=C(CC1=CCCCC1)NC1CCc2n[nH]c(=O)n2CC1 (stereo not drawn)	-9%
CC/C=C\[C@H](O)[C@H](O)C1=C(C)C(=O)[C@]2(O1)C(=O)N[C@@](O)(C(=O)c1ccccc1)[C@@H]2O	-17%[10 µM]

Going on with the list.
SMILES	nsP2pro inh
Cc1c(NC(=O)CC(C)C)cccc1-c1nc2cccnc2s1	-13%
COc1cccc(NC(=O)CSC2=Nc3ccccc3C3=NC(CCC(=O)NCc4ccco4)C(=O)N23)c1 (stereo not drawn)	?
CCOC(=O)c1[nH]c(C)c(CCC(=O)N2CCN(c3cc(Cl)ccc3C)CC2)c1C	-3%
COc1ccc([C@H](C)NC(=O)c2c(C)noc2-c2cccs2)cc1	-1%
CC(=O)OC12C(O)C(C)C3(O)C4C=C(C)C(=O)C4CC(CO)=CC3C1C2(C)C (stereo not drawn)	4%[10 µM]
COc1ccc(NS(=O)(=O)c2ccc3c(c2)CC(C)N3C(=O)C2CCC2)cc1OC (stereo not drawn)	-19%
Cc1ccc(C)c(CSc2nnc(C)n3c2cc2sccc23)c1	-13%
Cn1nnnc1Sc1ncnc2scc(-c3ccccc3C#N)c12	1%
Nc1ncnc2c1ncn2C1O[C@H](COP(=O)(O)OP(=O)(O)OP(=O)(O)O)[C@@H](O)[C@H]1O (stereo partly drawn)	-17%
C#CCN(Cc1cc2c(=O)n(C)c(CN3CCN(C)CC3)nc2cc1Cl)c1ccc(C(=O)NCc2cccnc2)cc1	168%[activator]

Filtered by structure, the compounds so far with an NH in an aromatic ring (12)
SMILES	nsP2pro inh
O=C(COc1ccc(F)cc1)N1CCCN(c2cc(-c3ccc(Br)cc3)[nH]n2)CC1	-4%
CCOC(=O)c1ccc(NC(=O)c2cccc3c(=O)c4c([nH]c23)CCCC4)cc1	5%
COc1ccc(NC(=O)c2[nH]c(C)c(C(C)=O)c2C)cc1[S+](=O)([O-])Nc1ccccc1C#N	1%
O=c1ccn([C@@H]2O[C@H](CO)[C@@H](O)[C@H]2O)c(=O)[nH]1	10%
O=C(Nc1ccn[nH]1)c1c(F)cccc1F	17%
Cc1[nH]c2ccccc2c1C1=C(NCCc2ccc(F)cc2)C(=O)N(C)C1=O	-29%
CC(C)Cc1cc(CN2CCC(CO)(CN3CCCC3)CC2)[nH]n1	1%
CCCCNC(=O)c1cc(-c2ccc(OC)cc2)nc2n[nH]c(-c3cccc([N+](=O)[O-])c3)c12	-24%
CCCS(=O)(=O)N1CCCC(c2[nH]ccc2C(N)=O)C1 (stereo not drawn)	-13%
O=S(=O)(c1cnc[nH]1)N1CCC(c2nc(CCOCC3CC3)no2)C1 (stereo not drawn)	-18%
O=C(CC1=CCCCC1)NC1CCc2n[nH]c(=O)n2CC1 (stereo not drawn)	-9%
CCOC(=O)c1[nH]c(C)c(CCC(=O)N2CCN(c3cc(Cl)ccc3C)CC2)c1C	-3%
